# Screens as filed in PubChem BioAssay.
# Hsc70 ATP site = Hsc70 inhibitors, probe displacement, primary screen, biochemical, fluorescence polarization (AID 568) | Heat shock cognate 71 kDa protein (Homo sapiens) | Hsc70 fluorescence polarization, probe displacement; higher % means a stronger effect; strong numbers were not always called active | displacement, % at 20 µM; hits with a dose series show IC50 in µM | 83,000 tested, under 10 active;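 active = displacement above 50% without optical interference and an IC50 on retest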;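 also: ATPase domain with a fluorescein-tagged ATP probe; 0% = vehicle and 100% = excess ADP; read after one hour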
# MT1-MMP promoter = inhibitors of MT1-MMP promoter transcription, cell-based, luciferase reporter, luminescence (AID 618); actives 0.62% (n = 87,000); calls from a first round at 10 µM; hits with a dose series show EC50 in µM; MT1-MMP promoter luciferase reporter cells, luminescence;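 active = over half of the reporter light lost at 10 µM or EC50 under 50 µM; inactive = the rest and hits that failed the dose series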;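 also: actives suppress MT1-MMP promoter-driven transcription so potencies describe inhibitors; HT1080 fibrosarcoma cells; overnight exposure; toxic or luciferase-blocking compounds were not removed from the actives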
# WNV protease inh = inhibitors of WNV NS2B-NS3 protease, primary screen, biochemical, fluorogenic substrate; Genome polyprotein (West Nile virus), P06935; fluorogenic substrate Ex360/Em465; hits give low values; z-score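 (tested at a level between 10 and 100 µM)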; actives 0.18% (n = 65,000); AID 577, 2007;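 active = z-score at -3 or under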;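 also: score is relative to mean and spread of the compound wells of a plate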
# Target sequence (P06935 1371-1501 limits assumed): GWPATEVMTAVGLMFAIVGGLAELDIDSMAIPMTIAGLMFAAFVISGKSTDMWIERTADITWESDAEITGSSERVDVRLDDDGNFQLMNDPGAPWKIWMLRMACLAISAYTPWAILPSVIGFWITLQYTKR
# Target sequence (P06935 1502-1679 limits assumed): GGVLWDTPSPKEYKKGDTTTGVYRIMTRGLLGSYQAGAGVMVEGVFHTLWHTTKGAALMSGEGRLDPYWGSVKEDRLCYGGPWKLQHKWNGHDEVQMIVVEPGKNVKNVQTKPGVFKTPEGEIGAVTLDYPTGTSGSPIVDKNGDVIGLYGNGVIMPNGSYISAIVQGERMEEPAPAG
# Starred values were filed as active, the others as inactive; i = inactive; . = no result given. This is a subset; rates above refer to the full screens.
Structure	Hsc70 ATP site	MT1-MMP promoter	WNV protease inh
Cc1cc2oc(=O)cc(CN3CCN(S(=O)(=O)c4ccc5c(c4)OCCO5)CC3)c2cc1C	-1.9%	i	0.89
COc1ccc(N2CCN(C(=O)CCCC3=NS(=O)(=O)c4ccccc4N3)CC2)cc1	-4.3%	i	-0.41
CCN1CCCC1Cn1cnc2c([nH]c3ccc(Cl)cc32)c1=O (stereo unspecified)	-6.8%	i	-1.5
O=C(CCCCCN1C(=O)C2C3C=CC(C3)C2C1=O)Nc1nccs1 (stereo unspecified)	4.3%	i	0.33
COCCN1Cc2cccc(C(=O)Nc3ccc(S(=O)(=O)N4CCCCC4)cc3)c2C1=O	-2.2%	i	-0.17
Clc1ccc(Cc2noc(-c3cccs3)n2)cc1	6.9%	i	-1.3
CCOC(=O)c1ccc(NC(=O)c2c(C)[nH]c(C(=O)OCC)c2C)cc1	4.8%	i	0.28
O=C(CCc1ccc(S(=O)(=O)NCCc2ccccc2)cc1)NCc1ccc2c(c1)OCO2	0.1%	i	.
C/C(=N/NC(=O)c1ccoc1C)C12CC3CC(CC(C3)C1)C2	-4.1%	i	.
CC(C)OC(=O)c1sc2nc3c(cc2c1N)C(=O)CCC3	1.6%	i	-0.34
OC(CN1C2=NCCCN2c2ccccc21)c1ccc(Cl)cc1 (stereo unspecified)	1.9%	i	1.3
CCC(Sc1nc(C)cc(C)n1)C(=O)O (stereo unspecified)	3.9%	i	0.56
COc1ccc(S(=O)(=O)N(Cc2ccccc2)Cc2nc3ccccc3c(=O)[nH]2)cc1	-3.3%	i	1.1
CCn1c(=O)cc(OCC(=O)N2CCc3ccccc32)c2ccccc21	1.1%	i	-0.37
CC(=O)c1ccc(NC(=O)C2CCC(C)(C(=O)O)C2(C)C)cc1 (stereo unspecified)	-4.6%	i	0.11
CCOC(=O)C(CC)Sc1nnc2cc(C)c3ccccc3n12 (stereo unspecified)	-4.0%	i	.
COc1ccc(N(C(C)=O)C2C=CS(=O)(=O)C2)c(OC)c1 (stereo unspecified)	0.9%	i	-1.3
CCOc1ccc(OCCSc2nnnn2-c2ccccc2)cc1	4.6%	i	.
CC1(C)CC(=O)C=C(NCCN2CCN(C(=O)Nc3ccccc3)CC2)C1	-2.2%	i	0.02
COc1ccc(S(=O)(=O)n2nc(-c3cc(OC)c(OC)c(OC)c3)cc2N)cc1OC	1.9%	i	-1.1
CCOC(=O)C1C(=O)NC(N2CCOCC2)=NC1c1ccco1 (stereo unspecified)	-0.5%	i	1.8
O=C(NCc1cccs1)c1nn2cccnc2c1Cl	13%	i	-0.49
COCCNC(=O)C(OC(=O)c1cc2oc(C)cc2n1C)C(C)C (stereo unspecified)	2.1%	i	.
O=C(Oc1ccc(N(Cc2cccs2)C2=NS(=O)(=O)c3ccccc32)cc1)c1ccco1	-6.5%	i	-0.4
COc1ccc(C2CC(c3c(-c4ccccc4)c4cc(Cl)ccc4[nH]c3=O)=NN2S(C)(=O)=O)cc1OC (stereo unspecified)	-6.1%	i	.
Cc1nc(C)c(-c2csc(NCCc3ccccc3)n2)s1	2.7%	i	.
O=C(Nc1ccccc1C(F)(F)F)N1CCCC(O)C1 (stereo unspecified)	-3.0%	i	-0.48
CC12CCC(C(=O)N3CCCc4ccccc43)(CC1=O)C2(C)C (stereo unspecified)	-6.0%	i	-0.13
Cc1ccc(C)n1-c1ccncc1	0.6%	i	-0.22
CSc1nsc(SCC(=O)Nc2ccccn2)n1	6.8%	i	0.61
CCOC(=O)CSc1nnc(CNC(=O)c2cccc(C)c2)n1-c1ccccc1OC	7.4%	i	1.2
CCOC(=O)C1CCCN(C(=O)Cn2sc3nc(C)cc(C)c3c2=O)C1 (stereo unspecified)	-4.2%	i	-1.3
C=CCn1c(N2C(=O)CC(Cc3ccccc3)C2=O)nc2ccccc21 (stereo unspecified)	-0.7%	i	0.43
Cc1nc2sc(C(c3ccccc3)N3CC(C)OC(C)C3)c(O)n2n1 (stereo unspecified)	7.1%	i	-1.1
COc1ccc(OC)c(NC(=O)CSc2nnc(-c3ccco3)n2-c2ccccc2)c1	-0.9%	i	-0.79
O=C(c1cnn2c(C(F)(F)F)cc(-c3ccco3)nc12)N1CCc2ccccc2C1	-4.8%	i	0.64
Cc1cc(=S)n(-c2ccccc2)n1C	1.0%	i	-0.78
O=C(CNC(=O)c1cnccn1)Nc1ccc(F)c(F)c1F	-0.7%	i	-1.1
Cc1ccc(-c2csc3ncn(/N=C/N(C)C)c(=O)c23)o1	2.3%	i	-0.67
Cc1cccc(CSc2nc3sc(C)c(C)c3c(=O)n2Cc2ccco2)c1	0.2%	i	.
COc1ccc(C(CC(=O)O)NC(=O)COc2ccc(C)cc2)cc1OC (stereo unspecified)	3.4%	i	.
O=C(c1ccc2c(c1)OCO2)N1CCCc2ccccc21	-4.8%	i	-0.24
CCOC(=O)CSc1nnc(Cn2c(=O)sc3ccccc32)n1C	4.4%	i	-0.21
COc1cccc(NC(=O)Cn2c(=O)n(CC3CCCO3)c(=O)c3ccccc32)c1 (stereo unspecified)	-3.1%	i	.
CCN(CC)S(=O)(=O)c1cc(NC(=O)C(=O)c2c(-c3ccccc3)cc3ccccn23)ccc1C	-6.4%	i	.
CCc1oc(C(=O)O)cc1COC	-5.3%	i	0.43
COC(=O)CCc1c(C)nc(N)[nH]c1=O	-2.7%	i	.
CC(=O)Nc1ccc(S(=O)(=O)N2CCN(C(=O)N3CCCCCC3)CC2)cc1	-4.8%	i	0.49
Cc1cc(NC(=O)COC(=O)[C@H](C)NC(=O)c2ccccc2)no1	5.0%	i	.
C=C(Cl)COc1ccc2c(C)cc(=O)oc2c1	2.2%	i	0.13
C/C(=N\O)C(=O)NCc1ccccn1	-11%	i	0.77
Cc1cc(=O)[nH]c(SCCCOc2ccccc2Cl)n1	-3.4%	i	.
CCN(CC)CCCn1c(=S)[nH]c2ccc(Cl)cc2c1=O	-1.5%	i	-0.83
Nc1ccc2oc3ncccc3c(=O)c2c1	-4.2%	i	-0.03
CC1CN(C(=O)CSc2ncnc3sccc23)CC(C)O1 (stereo unspecified)	-16%	i	-1.1
CC(=O)c1c(NCCc2ccccc2)cc(C)oc1=O	4.9%	i	-0.28
CNC(=O)Nc1ccc(Cl)cc1	4.1%	i	.
O=C(NCCN1CCOCC1)Nc1ccccc1	0.7%	i	.
O=C1CCc2nc3ccccc3c(=O)n2N1	-2.3%	i	1.2
CCn1c(CNc2nc(-c3ccccc3)cs2)nnc1SCC(=O)NCc1ccco1	0.2%	i	1.2

# As entered above:
# O=C1CCc2nc3ccccc3c(=O)n2N1 – WNV protease inh: 1.2
# CC1CN(C(=O)CSc2ncnc3sccc23)CC(C)O1 (stereo unspecified) – Hsc70 ATP site: -16%
# O=C(c1ccc2c(c1)OCO2)N1CCCc2ccccc21 – Hsc70 ATP site: -4.8%
# C=C(Cl)COc1ccc2c(C)cc(=O)oc2c1 – WNV protease inh: 0.13
# CNC(=O)Nc1ccc(Cl)cc1 – Hsc70 ATP site: 4.1%
# O=C(NCCN1CCOCC1)Nc1ccccc1 – Hsc70 ATP site: 0.7%
# CCOC(=O)CSc1nnc(Cn2c(=O)sc3ccccc32)n1C – Hsc70 ATP site: 4.4%

# Later entries:
Structure	Hsc70 ATP site	MT1-MMP promoter	WNV protease inh
COc1ccccc1NC(=O)C(C)NS(=O)(=O)c1ccc(F)cc1 (stereo unspecified)	-1.5%	i	-0.46
O=C(Nc1ccc(CN2CCOCC2)cc1)c1cc2ccccc2oc1=O	1.2%	i	-0.51
O=C(COC(=O)C1CC(=O)N(Cc2ccccc2)C1)Nc1ccc2c(c1)OCO2 (stereo unspecified)	-2.9%	i	-0.27
CCC1SC(N)=NC1=O (stereo unspecified)	5.0%	i	-1.1
CNC(=O)c1cc2c(=O)n3cccc(C)c3nc2n1C	13%	i	-0.76
O=C1c2ccccc2CN1CCNS(=O)(=O)c1ccc2ccccc2c1	-2.4%	i	.
Cc1cc(OCC(=O)N2CCOCC2)c(C(C)C)cc1Cl	1.4%	i	0.22
COc1ccc2c(C)cc(N3CCOCC3)nc2c1	3.4%	i	.
O=C(CC1Sc2ncnn2C1=O)Nc1ccc(Br)cc1 (stereo unspecified)	-1.9%	i	-0.47
Cn1c(=O)cc(SCC(=O)N2CCN(C(=O)c3ccco3)CC2)c2ccccc21	-5.6%	i	-0.79
O=S(=O)(Nc1ccc(S(=O)(=O)N2CCCCC2)cc1)c1cccs1	10%	i	0.0073
CCCCN(CC)CCCNC(=O)CC1Nc2ccccc2NC1=O (stereo unspecified)	-3.0%	i	-0.85
COc1ccccc1OCC(=O)NCc1ccco1	0.2%	i	-0.05
S=C(c1cccs1)N1CCCC1	-1.9%	i	0.6
O=C1CC(c2ccc(F)cc2)Cc2nc(N3CCc4ccccc43)ncc21 (stereo unspecified)	-6.6%	i	-0.09
CCc1nnc(NC(=O)CSc2nnc(CNc3cccc(Cl)c3)n2CC)s1	-1.5%	i	.
COc1ccc(OCCOC(=O)c2ccc(-n3cnnn3)cc2)cc1	3.6%	i	.
O=C(CSc1ncn[nH]1)NCCOc1ccccc1	-6.6%	i	-0.28
CCn1c(=O)cc(OCC(=O)NCC2CCCO2)c2ccccc21 (stereo unspecified)	0.8%	i	0.16
O=C(O)c1ccc(CSc2nc3ccccc3o2)cc1	4.6%	i	0.91

# Only MT1-MMP promoter (two entries from above):
compound,MT1-MMP promoter
CCCCN(CC)CCCNC(=O)CC1Nc2ccccc2NC1=O (stereo unspecified),i
O=C1CC(c2ccc(F)cc2)Cc2nc(N3CCc4ccccc43)ncc21 (stereo unspecified),i

# Remaining list, next part:
Structure	Hsc70 ATP site	MT1-MMP promoter	WNV protease inh
CC(C)CN1C(=O)CC(Sc2ccccc2C(=O)O)C1=O (stereo unspecified)	5.4%	i	.
CN(C)c1nc(OCCOC(=O)COc2ccc(Cl)cc2Cl)nc(N(C)C)n1	-3.4%	i	-0.11
C=CCNC(=O)Nc1ccc2oc(C)nc2c1	3.9%	i	-0.65
CCOC(=O)n1c(=O)oc2cc(S(=O)(=O)N3CCCCC3)ccc21	3.2%	i	-1.1
O=C(C1CCCO1)N(c1cccc(Cl)c1)C1C=CS(=O)(=O)C1 (stereo unspecified)	-7.2%	i	0.73
O=C1CCc2cc(S(=O)(=O)N3CCN(Cc4ccc5c(c4)OCO5)CC3)ccc2N1	-2.4%	i	0.79
O=C(c1ccc(Br)o1)N1CCN=C1SCc1cccc(F)c1	5.1%	i	0.24
O=C(CSc1ncn[nH]1)Nc1nc(-c2ccccc2)cs1	2.2%	i	.
COc1ccc(N2CCN(CCNC(=O)CCN3C(=O)COc4ccccc43)CC2)cc1	3.1%	i	1.2
CCOC(=O)C1CCN(C(=O)c2ccc(Cl)c(Cl)c2)CC1	-2.5%	i	0.45
CN(Cc1ccccc1)C(=O)CNC(=O)Cn1cnc2ccccc2c1=O	-3.8%	i	0.35
COc1cc(CC(=O)NCc2ccccn2)cc(OC)c1OC	1.7%	i	.
CC(C)CCN1CCNC(=O)C1CC(=O)Nc1ccc(F)cc1 (stereo unspecified)	5.1%	i	1.2
COC(=O)c1ccc(C(=O)OC)c(NC(=O)CN(c2ccc3c(c2)OCO3)S(C)(=O)=O)c1	1.6%	i	.
Cc1nc2cc(NC(=O)Nc3ccc(N4CCOCC4)cc3)ccc2n1C	2.0%	i	-0.83
COc1ccc(OC)c(C(=O)c2ccccc2)c1	1.3%	i	.
COc1ccc(OC)c(S(N)(=O)=O)c1	1.0%	i	2.2
CC(=O)c1cc2c(=O)c3cc(C)ccc3oc2nc1C	-3.6%	i	-0.07
C=CCOC(=O)C1=C(C)N=C2SCCC(=O)N2C1c1cccs1 (stereo unspecified)	-0.6%	i	0.4
COc1cc(OC)cc(-c2cc(NC(C)=O)n[nH]2)c1	3.2%	i	0.54
CCN(C(C)=O)c1nc(CSc2nnc(NC(C)C)s2)cs1	-2.5%	i	0.3
CCOC(=O)C(Cc1ccccc1)NC(=O)CNC(C)=O (stereo unspecified)	0.2%	i	-1.2
c1ccc2c(c1)NC(c1ccncc1)n1c-2nc2ccccc21 (stereo unspecified)	5.0%	i	-0.68
COc1ccc(OC)c(NC(=O)CNC(=O)Cn2ccc3ccccc3c2=O)c1	0.2%	i	2.1
CC(=O)c1cc2c(cc1NC(=O)CCn1cccc1)OCO2	-3.3%	i	-1.2
O=C(NC1CCCCC1)C(c1cccs1)N(CC1CCCO1)C(=O)c1csnn1 (stereo unspecified)	0.1%	i	1.4
COc1ccc2nc(C)[nH]c(=O)c2c1	-2.7%	i	-0.71
O=C(Cc1c[nH]c2ccccc12)Nc1nccs1	-2.2%	i	-0.26

# One compound at a time, as listed above.
# `Cc1ccc(-c2csc3ncn(/N=C/N(C)C)c(=O)c23)o1` is listed as Hsc70 ATP site = 2.3%; MT1-MMP promoter = i; WNV protease inh = -0.67
# `COc1cc(CC(=O)NCc2ccccn2)cc(OC)c1OC` is listed as Hsc70 ATP site = 1.7%; MT1-MMP promoter = i; WNV protease inh = .
